Sfp inh: Sfp phosphopantetheinyl transferase inhibition | Q9F4F7 | Biochemical Sfp PPTase activity, qHTS | Potency, µM, for the others: max response, negative = inhibition, usual class: inhibitors | hit rate 3.5% among 310,000; active = well fitted inhibition curve with a large enough effect; inconclusive = small, poorly fitted or top-dose-only effect, or another doubt; inactive = no such curve, though single readings can be large or run the other way;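 note: the enzyme is Sfp with the accession as filed and its product quenches rhodamine fluorescence; potency is the fitted concentration of half-maximal effect; 0% = enzyme reaction without inhibitor and -100% = no enzyme wells; top concentration of the series not given in the record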
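Compounds were incubated with enzyme (final 15 nM) for 15 min at room temperature before substrate addition started the reaction. Fluorescence at 525 nm excitation, 598 nm emission was recorded immediately and after 30 minutes.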
Menin-MLL FL inh: inhibitors of human menin-MLL interaction, wild-type MLL peptide. Fluorescence polarization, fluorescein-MLL peptide displacement from menin. FP activity change, % at 61.4 µM. 290,000 tested, under 10 active. AID 1766; inconclusive = falling polarisation curve, or a change in total fluorescence; inactive = total fluorescence flat and polarisation flat or rising; no compound was filed as active; the % refers to the polarisation; negative = inhibition;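 note: % of control where 0% means no effect; inhibitors lower the polarisation; unlabelled MLL peptide was the positive control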
gsp antag: antagonizes gsp, the McCune-Albright syndrome mutation | hit rate 0.4% among 340,000 | AID 624288 | gsp-mutant cells, cAMP HTRF, 30 min; control for the full effect not named in the record | Potency, µM (doses to about 76.9 µM), for inactives: at the highest dose activity change, negative = inhibition, usual class: inhibitors; active = falling curve of any shape with a large fitted effect; inconclusive = falling curve, mostly with a smaller effect; inactive = flat or rising curve; cell line not stated here;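 note: intracellular cAMP measured with PDE inhibitor Ro 20-1724 present during compound exposure; potency is the fitted concentration of half-maximal effect; % is set by controls: 0 for no effect and ±100 for the full control effect; nearly all actives have a fitted effect of over 65% in size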
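Cells in G418 medium, seeded 16-24 h, 37C; buffer exchange to DPBS + 1 mM CaCl2, 0.5 mM MgCl2, 0.05% BSA; cpds in DMSO + […] (300 uM stock), 30 min 37C; HTRF cAMP detection.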
gsp agonist: activates gsp, the McCune-Albright syndrome mutation | hit rate 0.13% among 340,000 | gsp mutant cells, cAMP HTRF, 30 min; control for the full effect not named in the record | Potency, µM (highest dose often 76.9 µM), without a hit: at the highest dose activation (cAMP increase), usual class: activators; active = well fitted activation curve with a large enough effect; inconclusive = small, poorly fitted or top-dose-only effect, or another doubt; inactive = no such curve, though single readings can be large or run the other way; cell line not stated here;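 note: phosphodiesterase inhibitor Ro 20-1724 added with compounds to block cAMP breakdown; potency is the fitted concentration of half-maximal effect; nearly all actives have a fitted effect of over 60% in size; about a fifth of the inactives were tested at one dose only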
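Cells stably selected in G418 were plated at 2000/well, grown 16-24 hr, then given compounds in DMSO with the PDE inhibitor […] (300 uM solution added) for 30 min at 37C; cAMP was read by HTRF.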
ClpP mod: qHTS Assay for Activators of ClpP. ATP-dependent Clp protease proteolytic subunit (Bacillus subtilis (strain 168)), P80244. purified B. subtilis ClpP, FRET peptide cleavage, 20 min. Potency, µM (titrated, usually from 57.5 µM), for the others: at the highest dose activity change, negative = active. hit rate 1.9% among 340,000; active = well fitted falling curve with a large enough effect; inconclusive = small, poorly fitted or top-dose-only effect; inactive = no such curve, though single readings can be large or run the other way; note: potency is the fitted concentration of half-maximal effect; the source files actives as falling curves though it sought activators and does not explain the sign; nearly all actives have a fitted effect of over 65% in size; many hits overshoot -100%
Target sequence (P80244 whole entry, looked up): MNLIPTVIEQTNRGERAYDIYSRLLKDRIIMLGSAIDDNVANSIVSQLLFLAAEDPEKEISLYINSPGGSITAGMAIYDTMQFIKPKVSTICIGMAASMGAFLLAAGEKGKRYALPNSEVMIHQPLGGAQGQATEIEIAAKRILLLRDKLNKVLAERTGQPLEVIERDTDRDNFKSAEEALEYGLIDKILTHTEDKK
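Purified B. subtilis ClpP, 10 microg/mL final in Tris/HCl pH8 with KCl, BSA, glycerol and Tween-20, cleaved an Abz/nitrotyrosine-quenched decapeptide. Fluorescence (ex 320, em 430) was read at 0 and 20 min at room temperature. Delta was normalized to 5.8 microM ADEP and DMSO/no-enzyme controls.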
TRPV1 potentiator: enhances activation of the human vanilloid receptor TRPV1; potentiation, % at 8.33 µM; hit rate 0.02% among 320,000; TRPV1-expressing cells, Fluo-8 calcium influx, capsaicin EC20 potentiation; host cell line not named in the record; control for the full effect not named in the record; Q8NER1; active means potentiation above 80%; inconclusive means 30% to 80%; inactive means below 30%; note: 0% is about no effect
Target sequence (Q8NER1 whole entry, looked up): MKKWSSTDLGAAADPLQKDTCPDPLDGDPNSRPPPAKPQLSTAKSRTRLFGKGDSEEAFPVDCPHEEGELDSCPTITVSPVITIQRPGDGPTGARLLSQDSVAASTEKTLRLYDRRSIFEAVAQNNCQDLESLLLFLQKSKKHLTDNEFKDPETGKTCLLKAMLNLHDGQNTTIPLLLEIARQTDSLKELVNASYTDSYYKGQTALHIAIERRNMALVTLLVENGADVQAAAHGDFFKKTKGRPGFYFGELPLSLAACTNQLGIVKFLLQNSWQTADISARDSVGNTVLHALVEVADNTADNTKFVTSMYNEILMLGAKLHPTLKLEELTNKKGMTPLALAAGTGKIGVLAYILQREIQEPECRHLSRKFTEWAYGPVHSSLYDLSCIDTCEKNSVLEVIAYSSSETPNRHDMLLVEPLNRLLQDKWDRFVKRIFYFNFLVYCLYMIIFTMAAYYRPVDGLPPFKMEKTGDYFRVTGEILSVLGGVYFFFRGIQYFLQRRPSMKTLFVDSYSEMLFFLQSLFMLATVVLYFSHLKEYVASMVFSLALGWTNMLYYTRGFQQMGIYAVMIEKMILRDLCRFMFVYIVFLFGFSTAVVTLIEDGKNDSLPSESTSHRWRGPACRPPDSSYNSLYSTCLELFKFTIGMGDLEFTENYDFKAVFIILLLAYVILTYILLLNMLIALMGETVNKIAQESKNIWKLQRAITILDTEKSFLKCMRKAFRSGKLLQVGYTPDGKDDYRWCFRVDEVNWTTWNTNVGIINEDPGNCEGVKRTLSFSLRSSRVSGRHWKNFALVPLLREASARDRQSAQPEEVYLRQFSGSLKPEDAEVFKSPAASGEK
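Fluo-8 calcium influx in TRPV1-expressing cells, kinetic read (ex 480/em 520 nm). Compound added and read 3 min for agonist activity, followed by capsaicin at EC20 final and 2 min further read for enhancement.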
D2 PAM: potentiates the human D2 dopamine receptor allosterically; potentiation, % (test concentration not listed); P14416; DiscoveRx D2 beta-arrestin cells, luminescence, 90 min; 100% = 57 uM dopamine signal; hit rate 0.23% among 360,000; active = potentiation of 50% or more; inconclusive = 30% to 50%; inactive = 30% or less;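 note: compound concentration not given in the record; tested on top of an EC20 dose of dopamine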
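PathHunter beta-arrestin assay in DiscoveRx D2 cells. Compounds were added with an EC20 of dopamine (50 nM final) for 90 min at 37 deg C. Luminescence was read 1 h after detection reagent, with 57 uM dopamine as the EC100 control.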
* marks the source's active call; other numbers are inactive results; ? = inconclusive; . = no result given; & = joins results of further samples; [ ] = dose if it differs, or a comment.

compound	Sfp inh	Menin-MLL FL inh	gsp antag	gsp agonist	ClpP mod	TRPV1 potentiator	D2 PAM
COc1ccc(/C=C2\SC(=S)N(CCC(=O)N3CCOCC3)C2=O)cc1OC	.	.	.	-45%[inhibitor]	-0.8%	.	-18
COc1ccccc1OCCSc1nc2ccccc2c(=O)[nH]1	11%	3.1	1%	?	0.3%	-6	1
COc1ccc(/C=C2\SC(=S)N(CCC(=O)Nc3ccc(C(=O)O)cc3)C2=O)cc1OC	2%	?	6%	-10%[15.4 µM]	-0.2%	13	0
CCc1ccccc1NC(=O)c1noc(C(C)C)c1[N+](=O)[O-]	0%	-2.9	10%	-22%	.	7	2
Cn1c(=O)oc2cc(S(=O)(=O)NCCC(=O)NCCc3ccc(Cl)cc3)ccc21	15%	-2.2	-18%	2%	0.6%	4	-25
Cc1ccc(CN(Cc2ccco2)C(=S)Nc2ccccc2C)cc1	9%	2.8	-20%	?	0.7%	-9	-4
CCNC(=O)NC(=O)COC(=O)c1cccc(NS(=O)(=O)/C=C/c2ccccc2)c1	4%	1.1	17%	0%	0.3%	9	26
COc1ccc(N2CC(C(=O)OCC(=O)Nc3cc(C)on3)CC2=O)cc1 (stereo not given)	16%	1.2	1%	-20%	.	0	-1
O=C(c1ccccc1)c1nn(-c2ccc(Cl)cc2)cc1C(=O)c1cc2ccccc2oc1=O	14%	4.0	-6%	-43%[inhibitor]	?	-2	2
O=c1[nH]c(CN2CCOCC2)nc2scc(-c3ccccc3)c12	16%	1.6	-5%	13%[15.4 µM]	-3.7%	15	-9
CN(CC(=O)Nc1ccccc1C(F)(F)F)C(=O)c1cc(-c2cccs2)nn1-c1ccccc1	.	.	-26%	6%[15.4 µM]	-4.0%	-1	-16
CCC(=O)c1c(NC(C)C)cc(C)oc1=O	-1%	-2.1	-3%	0%[15.4 µM]	-1.3%	9	-4
COc1cccc(CCC2C(=O)CCCC2=O)c1	.	.	4%	-10%	-0.6%	.	-10
CCc1sc(C(=O)Nc2ccsc2C(=O)OC)cc1Br	-1%	7.1	-9%	-2%	?	19	-10
Cc1ccccc1Nc1cc2ccccc2c(=O)[nH]1	-16%	?	-6%	-19%	-29%	-29	?
CCCCCC(=O)N1C[C@@H](O)[C@H](n2cc(C3CC3)nn2)C[C@@H]1c1ccccc1	.	.	.	?	1.0%	.	-4
CCOC(=O)CNc1nc(C#N)nc(N2CCOCC2)n1	22%	-0.6	1%	-13%	1.3%&-5.3%	2	3
O=C(CN1CCc2ccccc21)NC(=O)NCc1ccccc1	12%	?	20%	-1%[15.4 µM]	.	-9	-5
CCN(CC)C(=O)CN(c1ccc(C)cc1)S(=O)(=O)c1ccc(SC)cc1	2%	3.5	-18%	-19%	0.2%	-10	-17
CC(=O)c1ccc(OCC(=O)NC2CCCN(Cc3ccccc3F)C2)cc1 (stereo not given)	19%	-0.3	-5%	?	0.0%	1	-8
Oc1ccc(-c2cnns2)c(O)c1	56µM*	-6.3	-4%	10%	-5.7%	-2	?
O=C(CSc1ccc(-c2ccccc2)nn1)NC1CCCCC1	-29%	-0.9	-3%	-38%	-1.8%	-2	14
CCN(C(=O)COC(=O)c1ccco1)c1cccc2ccccc12	.	.	-4%	-4%	-1.0%	.	2
CCc1ccc(N(C(=O)c2snc(C(N)=O)c2N)C(C(=O)NCC2CCCO2)c2ccco2)cc1 (stereo not given)	3%	-2.1	-14%	2%	.	8	-1
COc1cc2c(-c3cc(F)cc(F)c3)c(-c3ccsc3)oc(=O)c2cc1OC	.	.	-8%	23%	-27%	-1	-2
O=C(CC1C(=O)N(c2ccccc2)C(=S)N1c1ccccc1)c1ccccc1 (stereo not given)	-1%	-0.2	-25%	18%	-3.9%	-11	-7
COCCCNC(=S)NNC(=S)NCCCOC	45µM*	-1.3	12%	-13%[15.4 µM]	.	7	-2
CC1(OC(=O)C2CCCC2)C(=O)C=C2C=C(c3ccc(C#N)cc3)OC=C2C1=O (stereo not given)	-13%	5.2	-20%	.	-0.8%	.	-1
CCC(C)NC(=S)N1CCN(C(c2ccccc2)c2ccccc2)CC1 (stereo not given)	2%	3.1	-13%	?	0.4%	-1	-3
O=C(O)CCC(=O)c1ccc2ccc3cccc4ccc1c2c34	10%	0.0	.	.	.	23	.
O=C(Cn1c(C(=O)NCC2CCCO2)cc2sccc21)c1ccccc1 (stereo not given)	20%	0.9	1%	14%	-4.8%	-8	-7
CC(C)N1CCN(Cc2ccncc2)CC1CCO (stereo not given)	15%	-3.7	9%	-19%	0.4%	-8	-15
COC(=O)C1=C(C)N(Cc2ccccc2)C(=NCc2ccccc2)N[C@H]1c1cccc(C(F)(F)F)c1	.	.	2%	.	-1.3%	.	-45
O=C(COc1ccc(/C=C\[N+](=O)[O-])cc1)N1CCOCC1	40µM*	-0.9	7%	-3%	0.1%	2	2
CC(C)=CC(=O)Nc1cccc(S(=O)(=O)NC2=NCCCCC2)c1	.	.	10%	0%	0.0%	.	10
CC(=O)N(c1ccc2oc(=O)sc2c1)S(=O)(=O)c1ccc(C)cc1	?	-10.0	-12%	-15%	.	-7	0
Cc1ccc(Nc2nnc(SCC(=O)Nc3cccnc3Cl)s2)cc1C	-6%	4.0	-14%	?	0.9%	-6	-14
O=C(NCCO)c1cc2c([nH]c3ccccc32)c(-c2ccccc2)n1	-11%	-9.4	-12%	-21%[15.4 µM]	0.6%	-7	2
O=C(Nc1ccc(F)cc1)c1cn(-c2ccccc2)nc1-c1ccncc1	-2%	-1.8	-9%	-37%[inhibitor]	0.6%	-20	-21
Cc1ccc(NC(=O)[C@H](NC(=O)[C@@H]2Cc3ccccc3CN2)c2ccccc2)cc1	-9%	.	4%	-4%	-3.7%	9	-33
O=C(COc1ccccc1)Nc1cccc(-c2cn3cccnc3n2)c1	12%	4.6	-6%	4%[15.4 µM]	-18%&3.7%	10	15
COC(=O)c1ccc(C#Cc2ccccc2)o1	-19%	0.3	-2%	25%	.	-19	-7
N/C(CN1CCCC1=O)=N\O	10%	1.8	8%	?	-0.1%	29	1
Cc1cc(C)n(-c2ncnc3sc(C)c(C)c23)n1	14%	3.2	16%	25%	32µM*	-6	11
COc1ccc(NC(=O)Cn2nc(C)c([N+](=O)[O-])c2C)cn1	15%	-1.6	2%	1%[15.4 µM]	.	9	-12
CCOc1cc2c(cc1OCC)C(C(=O)O)C(c1cc(OC)c(OC)c(OC)c1)N(C)C2=O (stereo not given)	15%	-5.7	13%	-19%	-3.4%	-13	-12
Cc1ccc2cc(C)c(SCC(=O)Nc3cc(C)on3)nc2c1	-3%	.	-15%	10%[15.4 µM]	1.2%	4	-2
CCCCOc1ccccc1Cn1c(=O)oc2ccccc21	-10%	-0.7	-4%	-37%[inhibitor]	-0.5%	1	-29
CN(C)c1ccc(/C=C/c2cc[n+]([O-])cc2)cc1	0%	?	.	.	.	3	.
CCCCN(C(=O)NC(=O)Nc1ccccc1C)S(C)(=O)=O	18%	3.2	-1%	-2%	3.3%	-4	5
COc1cc(/C=N/NC(=O)c2c(-c3ccccc3)noc2C)cc(OC)c1OC	20%	2.2	2%	-26%	.	-12	8
CCN(CC)c1ncnc2scc(C3COc4ccccc4O3)c12 (stereo not given)	-3%	3.3	-6%	-2%	-1.1%	4	-19
O=S(=O)(Cc1ccccc1)c1ccccc1-c1nnc(-c2ccccc2)o1	-19%	1.6	1%	41%	44%	.	-20
COc1ccc(CNC(=O)C(c2ccncc2)N(C(=O)Cc2cccs2)c2cccc(C)c2)cc1 (stereo not given)	-6%	2.3	-7%	9%	0.7%	.	-4
CCNS(=O)(=O)c1cc(Br)ccc1OC	1%	5.2	8%	11%	0.7%	-5	-2
NS(=O)(=O)c1ccc(CNC(=O)C2CCCN2C(=O)c2cccs2)cc1 (stereo not given)	.	.	3%	3%	.	.	-5
O=C(NC1CCS(=O)(=O)C1)N1CCCCC1 (stereo not given)	6%	5.7	12%	-2%	-1.5%	-2	-14
CC(CCc1ccccc1)NC(=O)CNc1cccc([N+](=O)[O-])c1 (stereo not given)	6%	0.1	-15%	4%[15.4 µM]	.	-24	-1
Cc1ccc(Nc2nc(NCCCN3CCOCC3)nc(N)c2[N+](=O)[O-])cc1C	8%	3.2	22%	32%	-3.5%	-8	-20
O=C(/C(=C(/[O-])c1ccccc1)[n+]1ccccc1)c1ccc([N+](=O)[O-])cc1	6%	3.9	14%	23%	1.3%	21	-6

Later entries:
compound	Sfp inh	Menin-MLL FL inh	gsp antag	gsp agonist	ClpP mod	TRPV1 potentiator	D2 PAM
COc1ccc(N(CC(=O)Nc2ccc3c(c2)OCO3)S(=O)(=O)c2ccccc2)c(OC)c1	-4%	-1.6	-8%	16%	-5.9%	9	-11
COc1ccccc1NC(=O)Nc1ncccc1C	10%	4.5	0%	-3%	-2.7%	5	-14
Cc1ccc(-c2nc3c(=O)n(C)c4ccccc4c3o2)cc1	11%	0.9	1%	1%	?	-13	-29
Cc1cc(C)c(NC(=O)CS(=O)CC(=O)N2CCN(c3ccc(F)cc3)CC2)c(C)c1 (stereo not given)	2%	-1.6	-8%	-50%	-1.4%	8	0
COc1ccccc1N(C(=O)CNC(=O)c1ccco1)C(C(=O)NC1CCCC1)c1ccncc1 (stereo not given)	-7%	-2.3	9%	-1%	3.7%	-9	-1
CCn1nc(NC(=O)c2ccco2)c2cc3cc(C)ccc3nc21	-4%	0.9	-1%	-10%[15.4 µM]	-1.1%	-7	-1
COc1ccc(S(=O)(=O)NCc2ccccn2)cc1OC	-21%	-4.9	-14%	18%[15.4 µM]	0.4%	-3	-10

Part of the list above, reduced to TRPV1 potentiator and ClpP mod.
SMILES	TRPV1 potentiator	ClpP mod
CCn1nc(NC(=O)c2ccco2)c2cc3cc(C)ccc3nc21	-7	-1.1%
COc1ccccc1NC(=O)Nc1ncccc1C	5	-2.7%
